Methyltransferases – Primary Screen for Target Class Profiling of Small Molecule Inhibitors of Methyltransferases. purified enzyme, MTase-Glo SAH luminescence; hits give low values. calls only at 40 µM. hit rate 3.9% among 25,000. AID 1745853, 2022; active = -50% or lower on at least one of six enzymes; inconclusive = the cases between; inactive = as a rule above -30% on all six;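 also: enzymes were COMT GAMT GNMT HNMT NNMT and PNMT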
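Each enzyme was reacted with SAM and its substrate, with compounds tested once at 40 uM; SAH formed was read by MTase-Glo luminescence.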
Calls only; i = inactive; u = inconclusive; + = active, no number. % is scaled to controls: 0 for no effect and ±100 for the full control effect. Not all compounds are listed. The share of hits here may be higher or lower than overall.

SMILES	Methyltransferases
Cc1ccc(NC(=O)N2CCC(c3noc(COCC4CC4)n3)CC2)cc1F	i
COCCCNc1nc2c(-c3cccc(Br)c3)nnn2c2ccccc12	i
O=C(NCc1nnc2cc(-c3nc(C4CC4)no3)ccn12)c1nccc2ccccc12	i
COCc1nc(NCCc2nc(-c3ccccn3)no2)c2cnn(C)c2n1	i
O=C1CCN(C(=O)CCCc2ccccc2)CCCC(CO)CCN1 (stereo unspecified)	i
Cc1c(Cl)cccc1N1C(=O)c2cc3sccc3n2CC1(C)C(=O)NC1CCCC(C)C1C (stereo unspecified)	i
Cc1ccc(C(=O)N2CCC(N3C(=O)c4c(c(C)nn4-c4ccccc4)C3C)CC2)cc1 (stereo unspecified)	i
CCOC(=O)CNC(=O)N1CCn2cccc2C1C (stereo unspecified)	i
C=C[C@H]1[C@H](O[C@@H]2O[C@H](CO)[C@@H](O)[C@H](O)[C@H]2O)OC=C(C(=O)OC)[C@H]1CCO	+
CS(=O)(=O)c1cnc(NCCn2ccnc2)nc1C1CCCNC1 (stereo unspecified)	i
CC[C@@]1(O)CCN(C(=O)CCc2nc(-c3ccncc3)no2)C[C@H]1O	i
CCOc1cccc(C2c3cccn3-c3sc4c(c3CN2C(=O)Nc2ccc3c(c2)OCCO3)CCCC4)c1 (stereo unspecified)	i
Cc1ccc(CN2C(=O)c3cc4sccc4n3CC2(C)C(=O)NC2CCCCC2)cc1 (stereo unspecified)	i
COc1cc(O)cc(/C=C/c2ccc(O[C@@H]3O[C@H](CO)[C@@H](O)[C@H](O)[C@H]3O)cc2)c1	i
O=C(NCc1cccc(Cl)c1)c1cnc2c(c1)N(C(=O)Cc1ccc(O)cc1)CCC2	+
Cc1ccc(NS(=O)(=O)c2cc3c(cc2C)n(C)c(=O)n3C)cc1Cl	i
CCC(C)NC(=O)c1ccc2c(=O)n(C)c3nnc(SCC(=O)Nc4ccc(F)cc4)n3c2c1 (stereo unspecified)	i
CCc1ccc(CNC(=O)c2ccc3c(=O)nc4c(-c5ccccc5)n[nH]n4c3c2)cc1	i
COc1ccc(NC(=O)c2ccc3c(c2)OCC(=O)N(C)C3)c(F)c1	i
Cn1c(Cn2ccnc2)nnc1C1CCCN(CCOCc2ccccc2)C1 (stereo unspecified)	i
CCC(C(=O)NCc1ccc(OC(C)C)cc1)n1ccc2cc(S(=O)(=O)N3CCCCC3)ccc21 (stereo unspecified)	i
CCOCCCNC(=O)C1(C)Cn2c(ccc2-c2ccco2)C(=O)N1c1ccc(C)c(C)c1 (stereo unspecified)	i
CC(C)OCCCNC(=O)CCc1nnc2n(CCCOC(C)C)c(=O)c3ccccc3n12	i
COC(=O)C1=CO[C@@H](O[C@@H]2O[C@H](CO)[C@@H](O)[C@H](O)[C@H]2O)C2C1C(=O)C[C@H]2C (stereo partly specified)	i
CCOc1ccc(N2C(=O)c3cc4sc(CC)cc4n3CC2(C)C(=O)NC2CCC(C)CC2)cc1 (stereo unspecified)	i
CSCc1ccc(C(=O)N2CCN(c3ccc(C)cc3)C(=O)C2)o1	i
NS(=O)(=O)NCCNc1nonc1C(=Nc1ccc(F)c(Br)c1)NO	i
COc1cccc(NC(=O)c2cc3n(n2)CC(C)(C(=O)NC2CCCCCC2)N(C)C3=O)c1 (stereo unspecified)	i
COc1ccc(CCN2C(=O)c3nc4ccccc4n3CC2(C)C(=O)NC2CCCC2)cc1OC (stereo unspecified)	i
Cc1ccc(F)c(OC2(C(=O)O)CCN(S(=O)(=O)c3cnn(C)c3)CC2)c1	i
Cc1cccc(S(=O)(=O)N2CCCC(Cn3c(C4CC4)nc4cccnc43)C2)c1 (stereo unspecified)	u
CCOC(=O)C1=C[C@]2(CC)CCCN3CCc4c(n1c1ccccc41)[C@@H]32	i
CC1(C(=O)NCC2CCCO2)Cn2c(cc3ccccc32)C(=O)N1Cc1cccc(F)c1 (stereo unspecified)	i
CN1CCCCCCN(C(=O)c2cnccn2)[C@H]2CCC[C@H]2C1=O	i
COc1ccc(-c2nc3ccc(C4=NNC(=O)CC4C)cc3[nH]2)cc1 (stereo unspecified)	u
OC[C@H]1O[C@@H](OC/C=C/c2ccc(O)cc2)[C@H](O)[C@@H](O)[C@@H]1O	i
O=C(NNc1nc2cc(F)ccc2n2cccc12)c1cnccn1	i
CSc1ccc(CCN2C(=O)c3ccc(-c4ccco4)n3CC2(C)C(=O)NC2CCCCC2)cc1 (stereo unspecified)	i
O=C(Cc1ccc(F)c(F)c1F)N[C@@H]1CCNC[C@H]1O	i
Cc1ccc(C)c(C(=O)N2CC(c3nnc(-c4ccncc4)o3)C3(CCOCC3)C2)c1 (stereo unspecified)	i
COC(=O)C(CC1CCCC1)c1ccc(S(C)(=O)=O)cc1 (stereo unspecified)	i
CC(C)CCNC(=O)C1(C)Cn2nc(C(=O)NCCCN3CCCCC3)cc2C(=O)N1C (stereo unspecified)	i
C[n+]1cc(NC(=O)c2cccc(C(=O)Nc3cc4ccccc4[n+](C)c3)n2)cc2ccccc21	u
CN1CCC(Nc2ncc(C(C)(C)C(=O)O)c(N3CCOCC3)n2)CC1	i
Cn1c(=O)n(C)c2cc(S(=O)(=O)NCCc3ccc(Cl)cc3)ccc21	i
O=C(Cn1c(=O)n2nc(-c3ccc(F)cc3)nc2c2ccccc21)N1CCN(c2ccccc2F)CC1	i
O=C(NCCCn1cccn1)c1ccccc1OC1CCN(Cc2ccccn2)CC1	i
CC1CCC(NC(=O)C2(C)Cn3c(cc4occc43)C(=O)N2Cc2cccs2)CC1 (stereo unspecified)	i
CC1(C)CCC2(C(=O)OC3OC(CO)C(O)C(O)C3O)CCC3(C)C(=CCC4C5(C)CCC(OC6OC(C(=O)O)C(OC7OC(CO)C(O)C(O)C7O)C(OC7OC(CO)C(O)C(O)C7O)C6O)C(C)(C)C5CCC43C)C2C1 (stereo unspecified)	i
Cc1ccc(CN2C(=O)NC3(CCN(C(=O)Cc4cccc(F)c4)CC3)C2=O)cc1	i

An excerpt of these results, as comma-separated lines.
Molecule,Methyltransferases
CCc1ccc(CNC(=O)c2ccc3c(=O)nc4c(-c5ccccc5)n[nH]n4c3c2)cc1,i
COc1ccc(NC(=O)c2ccc3c(c2)OCC(=O)N(C)C3)c(F)c1,i
Cn1c(Cn2ccnc2)nnc1C1CCCN(CCOCc2ccccc2)C1 (stereo unspecified),i

Next compounds
SMILES	Methyltransferases
CC(=O)NC(Cc1c[nH]c2ccccc(=O)c12)C(=O)O (stereo unspecified)	+
CCCOCC(=O)N1CCc2onc(-c3ccc(C(F)(F)F)cc3)c2C1	i
CCOc1cc2oc(=O)cc(-c3ccccc3)c2cc1Cl	i
CC1CCC(n2c3cnccc3c3cnc(Nc4ccc5c(n4)CCN(C(=O)CO)C5)nc32)CC1 (stereo unspecified)	i
O=C(C(=O)N1CCc2[nH]nc(-c3ccccc3F)c2C1)c1ccco1	i
CCCN1C(=O)c2c(C(=O)NCc3cccc(C)c3)ncn2CC1(C)C(=O)NCc1ccc(OC)cc1 (stereo unspecified)	i
CCc1noc(-c2cn(C3CCCN(C(=O)c4ccc(C(C)(C)C)cc4)C3)nn2)n1 (stereo unspecified)	i
CCN(C(=O)CO)[C@H]1CN(C(=Nc2cccc(OC(F)F)c2)NC#N)N=C1c1ccc(Cl)c(Cl)c1	u
O=C(N1CCC(NS(=O)(=O)c2cccs2)CC1)N1CC2CC(C1)[C@H]1CCCC(=O)N1C2 (stereo partly specified)	i
Cc1ccc(C)c(CN2CC(=O)N(Cc3ccccc3)c3ccccc3S2(=O)=O)c1	i
CC1(C)C[C@H](O)C[C@@]2(C)OC(=O)C=C12	u
CCOC(=O)c1cc2n(n1)CC(C)(C(=O)NC1CCC(C)CC1)N(c1cccc(OC)c1)C2=O (stereo unspecified)	i
CCOC(=O)COc1ccc2c(c1)C[C@@H](NC[C@H](O)c1cccc(Cl)c1)CC2	i
CNC(=O)c1cccc(-c2cnc(Nc3ccc(Cl)cn3)c3c2CCO3)c1	i
CC12CCC3C(C)(C)C(O)CCC3(C)C1Cc1c(oc(C(=O)O)cc1=O)O2 (stereo unspecified)	i
CCOC(=O)c1cc2n(n1)CC(C)(C(=O)NCc1ccc(C)cc1)N(c1ccc(C)cc1C)C2=O (stereo unspecified)	i
Cc1ccc(CNC(=O)C2(C)Cn3cnc(C(=O)N4CCCCC4)c3C(=O)N2C2CC2)cc1 (stereo unspecified)	i
CCOc1ccc(CN2C(=O)c3cc(C(C)(C)C)nn3CC2(C)C(=O)NCc2ccccc2)cc1 (stereo unspecified)	i
Cc1cccc(N2CCN(C(=O)CCc3nnc4n(CC(C)C)c(=O)c5ccccc5n34)CC2)c1C	+
COc1ccc(CN2C(=O)c3c(-n4cccc4)c4cc(F)ccc4n3CC2(C)C(=O)NC2CCCCCC2)cc1 (stereo unspecified)	i

Gathered by group: the entries above containing a furan ring, fused or not.
SMILES	Methyltransferases
CCOCCCNC(=O)C1(C)Cn2c(ccc2-c2ccco2)C(=O)N1c1ccc(C)c(C)c1 (stereo unspecified)	i
CSCc1ccc(C(=O)N2CCN(c3ccc(C)cc3)C(=O)C2)o1	i
CSc1ccc(CCN2C(=O)c3ccc(-c4ccco4)n3CC2(C)C(=O)NC2CCCCC2)cc1 (stereo unspecified)	i
CC1CCC(NC(=O)C2(C)Cn3c(cc4occc43)C(=O)N2Cc2cccs2)CC1 (stereo unspecified)	i
O=C(C(=O)N1CCc2[nH]nc(-c3ccccc3F)c2C1)c1ccco1	i

Remaining list, next part:
SMILES	Methyltransferases
COc1cccc(CNC(=O)CSc2nnc3n(CC(C)C)c(=O)c4ccccc4n23)c1	i
CCCn1c(=O)c2ccc(C(=O)NC(C)CC)cc2n2c(=O)n(Cc3cccc(C)c3)nc12 (stereo unspecified)	i
COCc1nc(-c2ccc(OC3CN(C(=O)NCc4ccc(OC)cc4)C3)cc2)no1	i
C=C1C(=O)O[C@@H]2C[C@H](C)C3=CC(=O)[C@H](O)[C@@]3(C)C[C@H]12	u
COc1ccccc1CNC(=O)C1(C)Cn2c(cc3ccccc32)C(=O)N1C1CCN(Cc2ccccc2)CC1 (stereo unspecified)	i
CC1(C(=O)NCc2ccc(Cl)cc2)Cn2c(ccc2-c2ccco2)C(=O)N1CCc1cccs1 (stereo unspecified)	i
CCc1ccc(S(=O)(=O)c2nnn3c2nc(NCc2ccc(OC)cc2)c2ccccc23)cc1	i
CCCn1c(=O)c2ccccc2n2c(SCC(=O)Nc3cc(Cl)ccc3C)nnc12	i
COc1ccc(C(=O)C2CCN(CC(=O)N(Cc3nc4c(c(=O)[nH]3)COCC4)CC3CC3)CC2)cc1	i
COc1ccc(S(=O)(=O)N[C@H]2C[C@H]3C(=O)NC[C@@H](CCC(=O)NCc4ccccc4)N3C2)cc1	i

The last three entries of the part before come first, to join the parts.
SMILES	Methyltransferases
CCCn1c(=O)c2ccccc2n2c(SCC(=O)Nc3cc(Cl)ccc3C)nnc12	i
COc1ccc(C(=O)C2CCN(CC(=O)N(Cc3nc4c(c(=O)[nH]3)COCC4)CC3CC3)CC2)cc1	i
COc1ccc(S(=O)(=O)N[C@H]2C[C@H]3C(=O)NC[C@@H](CCC(=O)NCc4ccccc4)N3C2)cc1	i
CC(C)Cn1c(=O)c2ccc(C(=O)NC3CCCCC3)cc2n2c(SCC(N)=O)nnc12	i
CC1CCC(NC(=O)C2(C)Cn3c(nc4ccccc43)C(=O)N2CCCc2ccccc2)CC1 (stereo unspecified)	i
CCCN1C(=O)c2c(C(=O)Nc3c(C)cccc3C)ncn2CC1(C)C(=O)NCc1ccc(OC)cc1 (stereo unspecified)	i
O=c1c2ccccc2n2c(-c3ccc(Cl)cc3)nnc2n1Cc1ccc(F)cc1	i
COc1ccc(CCNC(=O)c2cc3n(n2)CC(C)(C(=O)NC2CCCC2)N(C)C3=O)cc1OC (stereo unspecified)	i
CN(CC(=O)N1CCC(Cc2ccccc2)CC1)S(=O)(=O)c1ccc2c(c1)CCC(=O)N2	i
Cn1cnc(CN2CCNc3cc(Nc4ccccc4)ncc3C2)c1	+
CCOc1ccccc1CN1C(=O)c2cc3sccc3n2CC1(C)C(=O)NC1CCCCCCC1 (stereo unspecified)	i
O=C(NCc1ccc(F)cc1)[C@@H]1C[C@@H](c2cccc(C(F)(F)F)c2)N(CC2CCOCC2)C1	i
COc1ccc(Cn2c(=O)c3ccccc3n3c(-c4ccc(F)cc4)nnc23)cc1	i

2 entries picked at random from those above, as already listed:
SMILES	Methyltransferases
CCOc1ccc(N2C(=O)c3cc4sc(CC)cc4n3CC2(C)C(=O)NC2CCC(C)CC2)cc1 (stereo unspecified)	i
CCCOCC(=O)N1CCc2onc(-c3ccc(C(F)(F)F)cc3)c2C1	i

Further structures follow.
SMILES	Methyltransferases
CC(C)NC(=O)C[C@@H]1C[C@H]2O[C@H](CNC(=O)NCc3ccccc3)[C@@H](O)[C@H]2O1	i
COCc1nc(CCNC(=O)NC2CCCCC2)no1	i
O=C(c1cccnc1)N1CCN(c2nnc3ccc(Cl)cn23)CC1	i
C=CCn1c(=O)c2ccc(C(=O)NCC(C)C)cc2n2c(=O)n(CC(=O)NC(C)C)nc12	i
COc1cccc(-n2nc(C(=O)O)cc2-c2ccc(C3CCCCC3)c(Cl)c2)c1	+
Cc1cc(C)n(Cc2cc(C(=O)N(C)C(C)c3ccon3)n[nH]2)n1 (stereo unspecified)	i
CC1(C)CC(CC(=O)N2CCCCC2)(c2ccccc2)CCO1 (stereo unspecified)	i
Cc1ccc2cc(CN3CCN(CC(N)=O)CC3)c(-c3cccs3)nc2c1	i
Cn1cnc([S+](=O)([O-])N2CCN(C(=O)N3CC4CC(C3)[C@H]3CCCC(=O)N3C4)CC2)c1 (stereo partly specified)	i
CN(C)CCN1C(=O)c2ccc(-c3ccco3)n2CC1(C)C(=O)NC1CCCCCCC1 (stereo unspecified)	i
COC(=O)c1ccc(NC(=O)N2Cc3c(sc4c3CCCC4)-n3cccc3C2c2cc(F)cc(F)c2)cc1 (stereo unspecified)	i
CC(=O)NC(C(=O)OC1CCC(C)(C)C2CC=C3C(=O)OCC3(O)C12C)C(C)C (stereo unspecified)	i

Screens as filed in PubChem BioAssay.
